gsp antag: qHTS for Antagonists of gsp, the Etiologic Mutation Responsible for Fibrous Dysplasia/McCune-Albright Syndrome: qHTS. Potency, µM (titrated, usually from 76.9 µM), inactives show at the top dose activity change, negative = inhibition, usual class: inhibitors. gsp-mutant cells, cAMP HTRF, 30 min; control for the full effect not named in the record. AID 624288, 2012. 340,000 tested, 0.4% active; active = falling curve of any shape with a large fitted effect; inconclusive = falling curve, mostly with a smaller effect; inactive = flat or rising curve; cell line not stated here;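 note: intracellular cAMP measured with PDE inhibitor Ro 20-1724 present during compound exposure; potency is the fitted concentration of half-maximal effect; % is set by controls: 0 for no effect and ±100 for the full control effect; nearly all actives have a fitted effect of over 65% in size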
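G418-selected cells were plated in DMEM/10% FBS for 16-24 h at 37C, then treated with compounds plus the PDE inhibitor […] (300 uM solution added) for 30 min at 37C. Intracellular cAMP was measured by HTRF after 30 min lysis at room temperature.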
gsp ag: qHTS for Agonist of gsp, the Etiologic Mutation Responsible for Fibrous Dysplasia/McCune-Albright Syndrome: qHTS. 340,000 tested, 0.13% active. AID 624287, 2012. gsp mutant cells, cAMP HTRF, 30 min; control for the full effect not named in the record. Potency, µM (titrated, usually from 76.9 µM), inactives show at the highest dose activation (cAMP increase), most hits filed as activators; active = well fitted activation curve with a large enough effect; inconclusive = small, poorly fitted or top-dose-only effect, or another doubt; inactive = no such curve, though single readings can be large or run the other way; cell line not stated here;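 note: phosphodiesterase inhibitor Ro 20-1724 added with compounds to block cAMP breakdown; potency is the fitted concentration of half-maximal effect; nearly all actives have a fitted effect of over 60% in size; about a fifth of the inactives were tested at one dose only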
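Cells stably selected in G418 were plated at 2000/well, grown 16-24 hr, then given compounds in DMSO with the PDE inhibitor […] (300 uM solution added) for 30 min at 37C; cAMP was read by HTRF.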
Sfp inh: qHTS Assay for Inhibitors of Bacillus subtilis Sfp phosphopantetheinyl transferase (PPTase); Potency, µM, for the others: max response, negative = inhibition, usual class: inhibitors; 4'-phosphopantetheinyl transferase ffp (Bacillus subtilis), Q9F4F7; 310,000 tested, 3.5% active; Biochemical Sfp PPTase activity, qHTS; active = well fitted inhibition curve with a large enough effect; inconclusive = small, poorly fitted or top-dose-only effect, or another doubt; inactive = no such curve, though single readings can be large or run the other way;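 note: the enzyme is Sfp with the accession as filed and its product quenches rhodamine fluorescence; potency is the fitted concentration of half-maximal effect; 0% = enzyme reaction without inhibitor and -100% = no enzyme wells; top concentration of the series not given in the record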
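With Hepes-Na pH 7.6 buffer containing 10 mM MgCl2, Sfp (15 nM) modified BHQ-2-YbbR (12.5 uM) using rhodamine-CoA (5 uM). Two reads 30 minutes apart at 525/598 nm yielded each well's rate.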
D2 potentiator: Beta-Arrestin HTS for Positive Allosteric Modulators of the Human D2 Dopamine Receptor: Potentiators; DiscoveRx D2 beta-arrestin cells, luminescence, 90 min; 100% = 57 uM dopamine signal; potentiation, % (no concentration beside the values); 360,000 tested, 0.23% active; AID 624464, 2012; active = potentiation of 50% or more; inconclusive = 30% to 50%; inactive = 30% or less;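 note: compound concentration not given in the record; tested on top of an EC20 dose of dopamine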
Target sequence (P14416 whole entry, looked up): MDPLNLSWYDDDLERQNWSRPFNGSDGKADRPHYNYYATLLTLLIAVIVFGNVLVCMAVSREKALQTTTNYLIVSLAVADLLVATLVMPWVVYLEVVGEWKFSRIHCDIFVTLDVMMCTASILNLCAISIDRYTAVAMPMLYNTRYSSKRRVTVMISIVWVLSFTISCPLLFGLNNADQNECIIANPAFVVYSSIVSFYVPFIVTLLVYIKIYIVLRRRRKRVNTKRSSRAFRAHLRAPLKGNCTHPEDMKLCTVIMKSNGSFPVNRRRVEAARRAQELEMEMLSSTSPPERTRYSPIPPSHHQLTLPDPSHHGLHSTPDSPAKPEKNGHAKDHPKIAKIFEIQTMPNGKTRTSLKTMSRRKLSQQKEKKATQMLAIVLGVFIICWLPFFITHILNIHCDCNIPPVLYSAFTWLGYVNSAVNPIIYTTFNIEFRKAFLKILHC
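PathHunter beta-arrestin assay in DiscoveRx D2 cells. Compounds were added with an EC20 of dopamine (50 nM final) for 90 min at 37 deg C. Luminescence was read 1 h after detection reagent, with 57 uM dopamine as the EC100 control.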
Menin-MLL FL inh: qHTS Assay for Inhibitors Targeting the Menin-MLL Interaction in MLL Related Leukemias: Competition With Fluorescein Labeled MLL-derived Peptide; Fluorescence polarization, fluorescein-MLL peptide displacement from menin; FP activity change, % at 61.4 µM; 290,000 tested, under 10 active; inconclusive = falling polarisation curve, or a change in total fluorescence; inactive = total fluorescence flat and polarisation flat or rising; no compound was filed as active; the % refers to the polarisation; negative = inhibition;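 note: % of control where 0% means no effect; inhibitors lower the polarisation; unlabelled MLL peptide was the positive control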
TRPV1 potentiator: HTS Assay for Compounds that Act as Potentiators of the Vanilloid Receptor 1; Transient receptor potential cation channel subfamily V member 1 (Homo sapiens), Q8NER1; TRPV1-expressing cells, Fluo-8 calcium influx, capsaicin EC20 potentiation; host cell line not named in the record; control for the full effect not named in the record; potentiation, % at 8.33 µM; 320,000 tested, 0.02% active; active means potentiation above 80%; inconclusive means 30% to 80%; inactive means below 30%; note: 0% is about no effect
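TRPV1-expressing cells were cultured overnight at 35.5C and loaded with Fluo-8 calcium dye for 40 to 90 min at room temperature. After a 10 s baseline, compound was added and calcium influx was read kinetically for 3 min (ex 480/em 520 nm).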
ClpP mod: qHTS Assay for Activators of ClpP; purified B. subtilis ClpP, FRET peptide cleavage, 20 min; AID 651965, 2013; Potency, µM (titrated, usually from 57.5 µM), without a hit: at the top dose activity change, negative = active; 340,000 tested, 1.9% active; ATP-dependent Clp protease proteolytic subunit (Bacillus subtilis (strain 168)), P80244; active = well fitted falling curve with a large enough effect; inconclusive = small, poorly fitted or top-dose-only effect; inactive = no such curve, though single readings can be large or run the other way; note: potency is the fitted concentration of half-maximal effect; the source files actives as falling curves though it sought activators and does not explain the sign; nearly all actives have a fitted effect of over 65% in size; many hits overshoot -100%
Target sequence (P80244 whole entry, looked up): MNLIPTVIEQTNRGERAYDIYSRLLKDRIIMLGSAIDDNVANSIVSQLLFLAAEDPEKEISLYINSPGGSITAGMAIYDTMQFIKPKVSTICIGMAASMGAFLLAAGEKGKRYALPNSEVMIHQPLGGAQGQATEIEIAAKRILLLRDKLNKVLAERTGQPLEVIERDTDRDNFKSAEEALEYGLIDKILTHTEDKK
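Buffer: 100 mM Tris/HCl pH8, 100 mM KCl, 0.05% low protease BSA, 2.5% glycerol, 0.01% Tween-20. ClpP 10 microg/mL final; 20 min RT; delta FRET normalized to ADEP and DMSO controls.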
The depositor's hits bear a star; [ ] = dose if it differs, or a comment. Compounds as they come; about 5.1% have a hit in one of these screens.

`O=C(CN1CCN(S(=O)(=O)c2ccc(Br)cc2)CC1)N/N=C/c1cccnc1` gave gsp antag -3%, gsp ag -2%, Sfp inh 7%, D2 potentiator -10, Menin-MLL FL inh 0.5, TRPV1 potentiator -8 and ClpP mod -12%.
CN(C(=O)c1ccc2c(c1)OCO2)C1(C(=O)NC2CCCC2)CCCCC1 was read as gsp antag -1%, gsp ag -13%, Sfp inh 0%, D2 potentiator 11, Menin-MLL FL inh 1.2, TRPV1 potentiator -6 and ClpP mod 0.7%.
Screening C[C@H](CO)N1C[C@H](C)[C@@H](CN(C)C(=O)c2ccc3ccn(C)c3c2)OCc2cn(nn2)CCCC1=O returned gsp ag 1%, D2 potentiator 6 and ClpP mod -8.6%.
`CCc1ccc(/C=C/C(=O)c2ccc(S(=O)(=O)N(C)C)cc2)cc1` gave gsp antag 11%, gsp ag -10%, Sfp inh -27%, D2 potentiator -26, Menin-MLL FL inh 5.1, TRPV1 potentiator 4 and ClpP mod -1.3%.
`CC1CCN(C(=O)CSc2nnc(Cn3c(=O)sc4ccccc43)n2C)CC1` gave gsp antag 2%, gsp ag -13%, Sfp inh 9%, D2 potentiator -3, Menin-MLL FL inh 1.2, TRPV1 potentiator -7 and ClpP mod 1.0%.
Screening Cc1ccc(C)c(OCCNc2ccc([N+](=O)[O-])cn2)c1 returned gsp antag -2%, gsp ag -33%[inhibitor], Sfp inh 11%, D2 potentiator -1, Menin-MLL FL inh 0.4, TRPV1 potentiator -19 and ClpP mod 1.0%.
For N#Cc1c(-c2cccc(F)c2)cc(-c2ccccc2)nc1Br the results were gsp antag 29%, gsp ag inconclusive, Sfp inh -13%, D2 potentiator 5, Menin-MLL FL inh 4.0, TRPV1 potentiator -4 and ClpP mod 43%.
Cc1ccc(C)c(S(=O)(=O)Nc2cc3c4c(c2)CC(=O)N4CCC3)c1 was read as gsp antag -4%, gsp ag -32%[inhibitor], D2 potentiator 6, TRPV1 potentiator 3 and ClpP mod -4.0%.
`COc1ccc(CNC2CCCCC2C)c(OC)c1` (stereo unspecified) gave gsp antag 3%, gsp ag 7%, Sfp inh -4%, D2 potentiator -8, Menin-MLL FL inh 6.4, TRPV1 potentiator -6 and ClpP mod inconclusive.
For COC(=O)CCc1ccc(O)cc1 the results were gsp antag -1%, Sfp inh 27%, D2 potentiator -9, Menin-MLL FL inh -0.1, TRPV1 potentiator 11 and ClpP mod -3.0%.
Cc1ccc(NC(=O)COC(=O)c2ccc[n+]([O-])c2)c(Br)c1 was read as gsp antag 2%, gsp ag 14%, D2 potentiator -3 and ClpP mod -8.6%.
Screening CCC(C)(C)NC(=O)C(c1ccc(C)cc1)N(Cc1cccnc1)C(=O)c1csnn1 (stereo unspecified) returned gsp antag 8%, gsp ag 18%, Sfp inh 4%, D2 potentiator 5, Menin-MLL FL inh 0.0, TRPV1 potentiator -2 and ClpP mod -2.3%.
`COC(=O)c1cc(N2CCNCC2)nc2ccccc12` gave gsp antag 15%, gsp ag -8%, Sfp inh -10%, D2 potentiator -15, Menin-MLL FL inh inconclusive, TRPV1 potentiator 15 and ClpP mod -27%.
For Cc1ncc([N+](=O)[O-])n1CCOC(=O)NC(NCc1ccccc1)C(Cl)(Cl)Cl (stereo unspecified) the results were gsp antag 2%, gsp ag -21%, Sfp inh 3%, D2 potentiator -9, Menin-MLL FL inh 2.6, TRPV1 potentiator -4 and ClpP mod 0.0%.
For CC(=O)Nc1cc2c(cc1Br)OCCO2 the results were gsp antag 6%, gsp ag 17%, Sfp inh 15%, D2 potentiator 7, Menin-MLL FL inh -0.7, TRPV1 potentiator -1 and ClpP mod -1.6%.
Screening CCOc1ccc(OCC)c(C2C(C#N)=C(N)N(c3cccnc3)C3=C2C(=O)CC(C)(C)C3)c1 (stereo unspecified) returned gsp antag -8%, gsp ag 2%, Sfp inh 32µM*, D2 potentiator -2, Menin-MLL FL inh 9.6, TRPV1 potentiator 10 and ClpP mod -3.1%.
Screening O=C(NCCCn1ccnc1)/C(=C/c1ccccc1)NC(=O)c1ccccc1 returned gsp antag 17%, gsp ag 0%[15.4 µM], Sfp inh 1%, D2 potentiator -7, Menin-MLL FL inh 0.6, TRPV1 potentiator 5 and ClpP mod 1.6%.
Screening CCC(=O)N1CCN(c2ccc(Cl)cc2NC(=O)c2ccc3c(c2)OCCO3)CC1 returned gsp antag -25%, gsp ag 15%, Sfp inh -15%, D2 potentiator 4, Menin-MLL FL inh inconclusive, TRPV1 potentiator -13 and ClpP mod 0.3%.
Screening CCOc1ccccc1N1CCN(C(=S)Nc2ccc(S(=O)(=O)Nc3ncccn3)cc2)CC1 returned gsp antag -6%, gsp ag -3%[15.4 µM], Sfp inh 7%, D2 potentiator -33, TRPV1 potentiator 8 and ClpP mod -1.8%.
Screening c1cncc(-c2nc(NCC3COc4ccccc4O3)c3ccccc3n2)c1 (stereo unspecified) returned gsp antag 0%, gsp ag 4%, Sfp inh inconclusive, D2 potentiator -12, Menin-MLL FL inh 2.8, TRPV1 potentiator -2 and ClpP mod -15%.
Screening CC(C)C(=O)N1CCN(c2ccc(NC(=O)COc3ccccc3[N+](=O)[O-])cc2)CC1 returned gsp antag 28µM*, gsp ag 9%, Sfp inh 21%, D2 potentiator 22, Menin-MLL FL inh -2.9 and TRPV1 potentiator -2.
CN(C)C(=O)N1CCC(C(=O)NCc2ccc(F)cc2)CC1 was read as gsp antag -6%, gsp ag 5%, Sfp inh 24%, D2 potentiator -5, Menin-MLL FL inh 6.1 and ClpP mod -4.4%.
Screening COc1cc(/C=N/NC(=O)c2ccncc2)ccc1OCc1cnc(Cl)s1 returned gsp antag -3%, gsp ag inconclusive, Sfp inh 33%[activator], D2 potentiator 2, Menin-MLL FL inh -4.8 and TRPV1 potentiator 0.
`CC1Cc2ccccc2N1CC(=O)NC(=O)NC1CCCCC1` (stereo unspecified) gave gsp antag -12%, gsp ag -22%, Sfp inh 14%, D2 potentiator -6, Menin-MLL FL inh 2.0, TRPV1 potentiator 11 and ClpP mod -0.4%.
Screening CCOC(=O)c1cccnc1SCC(=O)Nc1ccc(C)cc1 returned gsp antag -4%, gsp ag -19%[15.4 µM], Sfp inh 5%, D2 potentiator -8, Menin-MLL FL inh 4.0 and TRPV1 potentiator -5.
Screening CCCCn1c(N)c(N(CC(C)C)C(=O)CCNC(=O)c2ccccc2Cl)c(=O)[nH]c1=O returned gsp antag 10%, gsp ag -2%[15.4 µM], D2 potentiator -7 and TRPV1 potentiator 6.
`OCCCNc1ncnc2[nH]ncc12` gave gsp antag 9%, gsp ag 2% and D2 potentiator 3.
`CC(NC(=O)C1CCN(C(=O)Nc2ccccc2)CC1)c1ccc(Cl)cc1` (stereo unspecified) gave gsp antag -5%, gsp ag -11%, D2 potentiator 0, TRPV1 potentiator -9 and ClpP mod 0.6%.
Screening O=C(OCC(=O)N1CCc2ccccc21)c1ccc([N+](=O)[O-])o1 returned gsp antag 4%, gsp ag -6%, D2 potentiator 8 and ClpP mod 2.4%.
`CCOc1cc(NC(=O)CC(C)C)c(OCC)cc1NC(=O)CCn1nnc2ccccc21` gave gsp antag 3%, gsp ag 3%, Sfp inh 4%, D2 potentiator -9, Menin-MLL FL inh -0.4, TRPV1 potentiator -1 and ClpP mod -6.6%.
For CCOc1ccccc1N1CC(C(=O)Nc2cccc(S(=O)(=O)N3CCCCC3)c2)CC1=O (stereo unspecified) the results were gsp antag -15%, gsp ag -5%[15.4 µM], Sfp inh 2%, D2 potentiator -8, Menin-MLL FL inh -1.4, TRPV1 potentiator 9 and ClpP mod 0.1%.
Cc1cc(C)cc(NC(=O)CN(C)CC(=O)N(CC(C)C)c2c(N)n(CC(C)C)c(=O)[nH]c2=O)c1 was read as gsp antag 7%, gsp ag -7%, D2 potentiator -6, TRPV1 potentiator 1 and ClpP mod -1.0%.
Screening O=C(NCCCN1CCCCCC1)c1ccc2c(Cl)c3c(nc2c1)CCCC3 returned gsp antag -10%, gsp ag -14%, Sfp inh -12%, D2 potentiator -28, Menin-MLL FL inh -2.4, TRPV1 potentiator inconclusive and ClpP mod -2.8%.
Cc1ccc(Nc2cc(=O)[nH]c(=O)[nH]2)c(C)c1 was read as gsp antag -2%, gsp ag -19%, Sfp inh 8%, D2 potentiator -9, Menin-MLL FL inh -2.4, TRPV1 potentiator inconclusive and ClpP mod 2.1%.
`O=c1cc(-c2ccsc2)oc2cc(-c3ccc4c(c3)OCO4)ccc12` gave gsp antag -26%, gsp ag 10%, D2 potentiator -9 and ClpP mod -8.2%.
For O=C(OCC(=O)N1CCCCCC1)c1cnc(Cl)c(Cl)c1 the results were gsp antag -9%, gsp ag inconclusive, D2 potentiator -3, TRPV1 potentiator 16 and ClpP mod -0.6%.
`CS(=O)(=O)c1ccc(C(=O)Nc2cccc(-c3nc4ccccc4[nH]3)c2)cc1` gave gsp antag -6%, gsp ag -36%[inhibitor], Sfp inh 9%, D2 potentiator 1, Menin-MLL FL inh 2.2, TRPV1 potentiator -10 and ClpP mod 0.6%.
Screening Cc1ccc(OCc2nnc(N)s2)cc1 returned gsp antag 1%, gsp ag -4%, Sfp inh 9%, D2 potentiator -1, Menin-MLL FL inh -1.6 and TRPV1 potentiator -3.

High-throughput results deposited in PubChem BioAssay by National Center for Advancing Translational Sciences (NCATS).
